Compound activity deposited in PubChem by National Center for Advancing Translational Sciences (NCATS).
TRPML1 ag = activates the human TRPML1 channel | 410,000 tested, 0.12% active | Q9GZU1 | AID 624414 | TRPML1-expressing cells, Ca2+ dye fluorescence, FDSS; host cell line not named in the record; reference of the full effect not given here | activation, % (test concentration not listed); in the data active = activation above about 50%; inconclusive = about 30% to 50%; inactive = below about 30%; also: 0% is about no effect; the text of the record puts the active cut at 80%
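Kinetic FDSS Ca2+ read in Tet-induced TRPML1-DL cells (ABD Ca8 dye plus quencher, 45-90 min RT loading): baseline, then compound, then 110 s agonist window; EC80 agonist 54-4 at 4uM final added afterwards for a 110 s antagonist window.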
TRPML1 blocker = inhibitors of human TRPML1 channel | Q9GZU1 | AID 624415 | 390,000 tested, 0.02% active | activity change, negative = inhibition, % (test concentration not listed) | TRPML1-inducible cells, Ca2+ dye fluorescence, FDSS; active compounds read low; inhibition of EC80 agonist-evoked calcium signal; in the data active means activity change below about -50%; inconclusive means about -30% to -50%; inactive means above about -30%;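 also: stimulus is agonist 54-4 at its EC80 concentration; % is scaled to controls: 0 for no effect and ±100 for the full control effect; compound concentration not given in the record; the text of the record puts the active cut at -80%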
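Tet-induced TRPML1-DL cells loaded with Ca8 no-wash calcium dye were read kinetically on FDSS. Compound addition was followed by EC80 agonist 54-4 (4 uM final); inhibition was read over 110 s.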
D2 PAM = human D2 receptor positive allosteric modulation | P14416 | DiscoveRx D2 beta-arrestin cells, luminescence, 90 min; 100% = 57 uM dopamine signal | potentiation, % (no concentration beside the values) | 360,000 tested, 0.23% active; active = potentiation of 50% or more; inconclusive = 30% to 50%; inactive = 30% or less;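 also: compound concentration not given in the record; tested on top of an EC20 dose of dopamine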
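PathHunter D2 cells, attached overnight at 37 deg C, received compound in DMSO plus dopamine at EC20 (50 nM final) for 90 min at 37 deg C. Beta-arrestin recruitment was read as luminescence after 1 h with detection reagent at ambient temperature.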
Six1-Eya2 inh = blocks human Six1 binding to Eya2. AlphaScreen GST-Six1/His-Eya2 binding, biochemical; active compounds read low; control for the full effect not named in the record. activity change, % (concentration not given with the values). Q15475+O00167. 360,000 tested, 0.56% active; in the data active = activity change below about -65%; inconclusive = about -30% to -65%; inactive = above about -30%; also: % is scaled to controls: 0 for no effect and ±100 for the full control effect
Target sequence (O00167 whole entry, looked up): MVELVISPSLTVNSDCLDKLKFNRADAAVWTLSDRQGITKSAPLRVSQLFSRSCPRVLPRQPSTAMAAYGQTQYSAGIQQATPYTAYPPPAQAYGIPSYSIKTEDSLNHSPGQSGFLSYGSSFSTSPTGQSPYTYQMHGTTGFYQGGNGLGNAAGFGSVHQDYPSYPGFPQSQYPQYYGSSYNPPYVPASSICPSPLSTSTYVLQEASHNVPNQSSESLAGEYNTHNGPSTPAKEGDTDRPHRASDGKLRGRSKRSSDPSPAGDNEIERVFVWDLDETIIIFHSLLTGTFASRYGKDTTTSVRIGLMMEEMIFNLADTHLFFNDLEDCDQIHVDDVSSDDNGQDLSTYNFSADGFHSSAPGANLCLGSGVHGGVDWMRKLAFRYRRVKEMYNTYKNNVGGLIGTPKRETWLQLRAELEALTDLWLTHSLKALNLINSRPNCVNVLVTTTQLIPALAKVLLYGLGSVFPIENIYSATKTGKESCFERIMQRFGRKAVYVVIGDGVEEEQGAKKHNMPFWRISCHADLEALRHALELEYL
Target sequence (Q15475 whole entry, looked up): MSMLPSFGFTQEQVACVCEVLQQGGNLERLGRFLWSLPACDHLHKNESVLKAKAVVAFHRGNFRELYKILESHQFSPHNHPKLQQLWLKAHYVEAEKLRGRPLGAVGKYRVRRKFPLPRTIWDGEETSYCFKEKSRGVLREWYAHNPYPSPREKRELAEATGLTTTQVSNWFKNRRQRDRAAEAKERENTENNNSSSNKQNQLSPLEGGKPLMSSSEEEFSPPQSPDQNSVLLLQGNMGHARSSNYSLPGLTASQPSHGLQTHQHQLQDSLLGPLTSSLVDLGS
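Compounds are tested against tagged Six1 and Eya2 proteins bridged by glutathione donor and nickel acceptor beads; after a one-hour incubation at 37 °C without light, AlphaScreen emission is recorded.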
D2 agonist = agonists of human D2 dopamine receptor (beta-arrestin). 360,000 tested, 0.084% active. P14416. DiscoveRx PathHunter D2 beta-arrestin, luminescence, 90 min; 100% = 57 uM dopamine signal. activation, % (no concentration beside the values); in the data active = activation above about 40%; inconclusive = about 15% to 40%; inactive = below about 15%; also: compound concentration not given in the record; the text of the record calls up to 30% inactive
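Agonist mode: compounds alone added to overnight-plated D2 PathHunter cells for 90 min at 37 C, with 57 uM final dopamine (EC100) defining full response. Beta-arrestin recruitment detected by chemiluminescent reagent, read after 1 h at ambient temperature.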
PINK1 modulator = changes PINK1 expression; PINK1 immunofluorescence, high-content cytometry, 24 h; Potency, µM (series often up to 76.6 µM), for inactives: at the top dose activation (PINK1 increase), most hits filed as activators; 410,000 tested, 0.2% active; AID 624263; active = well fitted activation curve with a large enough effect; inconclusive = small, poorly fitted or top-dose-only effect; inactive = flat fitted curve, though single readings scatter; cell line not stated here;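 also: potency is read from the fitted curve at half-maximal effect; % of control where 0% means no effect; nearly all actives have a fitted effect of over 65% in size; a mitochondrial uncoupler was the plate control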
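Measures PINK1 amount and localization on or inside mitochondria by immunofluorescence. Stable cells get compounds at 5 concentrations for 24 hours before fixation and staining; CCCP controls included.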
* hit, by the source's call; u = inconclusive; x = not tested or not shown; [ ] = another dose, or the depositor's remark.

SMILES	TRPML1 ag	TRPML1 blocker	D2 PAM	Six1-Eya2 inh	D2 agonist	PINK1 modulator
O=C(O)CSc1nnc(Cn2c(=O)sc3ccccc32)n1-c1cccc(Cl)c1	0.5	11	-6	-2	-1.8	5.2%[38.3 µM]
O=[N+]([O-])c1ccc(N/N=C2/CCCCC2c2ccccn2)cc1 (configuration not stated)	-0.7	9	20	11	-3.5	0.6%
COC(=O)C1=C(N)Oc2cc(C)[nH]c(=O)c2C1c1ccc(Cl)cc1 (configuration not stated)	x	x	-11	-1	-6.2	1.0%
CC(=O)Nc1ccc(Nc2ncnc3c2cnn3-c2cccc(C)c2)cc1	-1.2	4	-3	-8	-0.9	2.7%
CCS(=O)(=O)N1CCc2cc(C(=O)N3CCN(c4cccc(C(F)(F)F)c4)CC3)ccc21	3.6	-9	x	x	x	0.4%
COCCN(C(=O)COC(=O)CCc1ccc(OC)cc1)c1c(N)n(Cc2ccccc2)c(=O)[nH]c1=O	-0.5	21	-28	0	-3.8	0.2%
N#Cc1c(NC(=O)c2cnccn2)sc2c1CCCC2	-0.6	-3	-16	-15	-5.3	-0.7%
CC(C)OCCCNC(=O)c1ccc(NS(C)(=O)=O)cc1	-0.1	11	-3	-1	-2.4	u
Cc1ccn2cc(C(=O)Nc3ccc4c(c3)OCCO4)nc2c1	0.5	-12	-1	12	2.8	x
CN(/N=C/c1cc(Br)cc(Br)c1O)c1cccc(C(F)(F)F)n1	0.2	5	-8	-16	-5.6	u
O=C(NCc1ccc2c(c1)OCO2)C12CN(Cc3ccccc3)CC1C(c1cccc([N+](=O)[O-])c1)=NO2 (configuration not stated)	0.3	-11	-15	-18	-1.8	0.6%
O=C1CN(C(=O)CN2CCCC2)C(c2ccccc2)c2cc(Br)ccc2N1 (configuration not stated)	0.3	1	-13	-2	-2.4	-3.5%
Cc1ccc(C2=NOC(=O)/C2=C\c2ccc(C)o2)cc1	2.8	-6	-9	-11	0.9	-0.9%
O=C(Nc1ccc2c(c1)OCO2)c1cccc(Cl)c1	-0.7	18	-22	-1	-4.8	-0.8%
COc1cc(NS(=O)(=O)c2ccc(N/C=C\C(=O)c3ccc(F)cc3)cc2)nc(OC)n1	0.4	8	-8	-25	-7.7	-2.3%
CCCC(C(=O)NCc1ccco1)N(C(=O)CNS(=O)(=O)c1ccccc1)C1CCCC1 (configuration not stated)	2.0	11	-2	19	-5.6	0.4%
COc1cccc(C2/C(=C(\O)c3ccc(OC)c(OC)c3)C(=O)C(=O)N2c2cc(C)on2)c1 (configuration not stated)	0.7	0	-11	-1	-3.9	-0.1%
CCOC(=O)C1CCN(c2c(NCCN(CC)c3ccccc3)c(=O)c2=O)CC1	0.8	15	-25	3	-3.2	1.2%
Cn1c(SCC(=O)N2CCCC2)nc2ccccc2c1=O	-0.2	-16	-4	0	-2.8	0.6%[38.3 µM]
COc1ccc(CCNC(=O)c2cc3c(=O)n4ccccc4nc3n(CC3CCCO3)c2=N)cc1OC (configuration not stated)	x	x	-11	3	2.6	-0.3%
CCCn1c(-c2cccc(Br)c2)nc2ccccc21	3.7	15	x	x	x	-1.1%
COc1ccc(CCC(=O)Nc2ncc(C)s2)cc1OC	-0.4	11	-6	1	-3.2	2.1%
COc1cccc(Nc2ncnc3sccc23)c1	0.0	-12	-5	-1	-5.2	0.5%
COC(=O)/C=C1\S/C(=N/N=C/c2ccccc2)NC1=O	-0.6	24	-7	-6	-4.7	0.7%
C#CCOCCOCCOCCNc1nc(N2CCN(C(=O)[C@H](C(C)C)n3cc(CCO)nn3)CC2)nc(N2CCN(C(=O)[C@H](C(C)C)n3cc(CCO)nn3)CC2)n1	-0.6	15	1	6	-1.7	0.4%
Cc1cc(-c2ccccc2)[nH]c(=O)c1C#N	0.7	18	-1	3	4.5	0.7%
Cc1ccc2c(CN3CCN(c4ccccc4)CC3)cc(=O)oc2c1	-0.4	-14	-9	4	-6.2	0.4%
CCN(CC)CCn1c(=N)n(CC(=O)c2ccc(C)cc2)c2ccccc21	0.0	-2	-5	-10	-6.8	1.7%
CCCCC(=O)N(C)c1c(C)nc2ccc(C(=O)N3CCN(c4ccccc4)CC3)cn12	-0.7	x	-9	13	7.5	0.1%
CCCCN(C)C(=O)CNC(=O)c1nn(-c2ccc(OC)cc2OC)c(=O)c2ccccc12	-1.4	1	-3	-1	-3.9	-2.1%

A different layout for some results above.
| SMILES | TRPML1 ag | TRPML1 blocker | D2 PAM | Six1-Eya2 inh | D2 agonist | PINK1 modulator |
| --- | --- | --- | --- | --- | --- | --- |
| COc1ccc(CCNC(=O)c2cc3c(=O)n4ccccc4nc3n(CC3CCCO3)c2=N)cc1OC (configuration not stated) | x | x | -11 | 3 | 2.6 | -0.3% |
| CCCn1c(-c2cccc(Br)c2)nc2ccccc21 | 3.7 | 15 | x | x | x | -1.1% |
| COc1ccc(CCC(=O)Nc2ncc(C)s2)cc1OC | -0.4 | 11 | -6 | 1 | -3.2 | 2.1% |
| COc1cccc(Nc2ncnc3sccc23)c1 | 0.0 | -12 | -5 | -1 | -5.2 | 0.5% |
| COC(=O)/C=C1\S/C(=N/N=C/c2ccccc2)NC1=O | -0.6 | 24 | -7 | -6 | -4.7 | 0.7% |
| C#CCOCCOCCOCCNc1nc(N2CCN(C(=O)[C@H](C(C)C)n3cc(CCO)nn3)CC2)nc(N2CCN(C(=O)[C@H](C(C)C)n3cc(CCO)nn3)CC2)n1 | -0.6 | 15 | 1 | 6 | -1.7 | 0.4% |
| Cc1cc(-c2ccccc2)[nH]c(=O)c1C#N | 0.7 | 18 | -1 | 3 | 4.5 | 0.7% |
| Cc1ccc2c(CN3CCN(c4ccccc4)CC3)cc(=O)oc2c1 | -0.4 | -14 | -9 | 4 | -6.2 | 0.4% |
| CCN(CC)CCn1c(=N)n(CC(=O)c2ccc(C)cc2)c2ccccc21 | 0.0 | -2 | -5 | -10 | -6.8 | 1.7% |
| CCCCC(=O)N(C)c1c(C)nc2ccc(C(=O)N3CCN(c4ccccc4)CC3)cn12 | -0.7 | x | -9 | 13 | 7.5 | 0.1% |
| CCCCN(C)C(=O)CNC(=O)c1nn(-c2ccc(OC)cc2OC)c(=O)c2ccccc12 | -1.4 | 1 | -3 | -1 | -3.9 | -2.1% |

(listing goes on)
SMILES	TRPML1 ag	TRPML1 blocker	D2 PAM	Six1-Eya2 inh	D2 agonist	PINK1 modulator
CCN1/C(=C2\SC(=S)N(Cc3ccccc3)C2=O)Sc2ccccc21	0.7	-2	-12	0	-3.6	u
COc1ccc(C)cc1S(=O)(=O)N1CCN(C(=O)c2ncoc2-c2ccccc2C)CC1	1.0	-25	-4	9	0.8	0.6%
O=C(c1nc2nc(-c3ccccc3)cc(C(F)(F)F)n2n1)N1CCOCC1	0.7	7	-4	-1	-1.1	0.8%
COc1ccc(NC(=O)c2nc[nH]c2C(=O)NCc2ccccc2)cc1	0.0	0	-3	2	-3.1	0.0%
Cc1cc(C)c(NC(=O)CSc2nnc(CN3CCOCC3)n2C)c(C)c1	-0.3	-13	2	22	-0.9	-0.7%
COc1cccc(/C=N/Nc2snc(SC)c2C#N)c1O	-0.7	12	-18	u	-13	13µM*
CCOc1ccc(-n2ccnc2SCC(=O)Nc2cc(C)ccc2C)cc1	5.5	43	x	x	x	-9.4%
O=C(c1ccco1)N1CCCC(N2CCN(c3ccccc3F)CC2)C1 (configuration not stated)	-0.7	11	-41	-7	-1.7	2.0%
Cc1ccc(CN(C)C(=O)CN2C(=O)NC(c3ccccc3)(c3ccccc3)C2=O)c(C)c1	2.9	-11	0	-8	1.3	1.0%
CC(C)Oc1ccc(CNC(=O)Cn2nc(N3CCN(c4ccccc4)CC3)ccc2=O)cc1	3.4	-4	x	x	x	4.7%
CC1CCc2c(sc3ncn(Cc4ccc(C(=O)O)cc4)c(=O)c23)C1 (configuration not stated)	-0.7	-6	0	-1	3.7	0.6%
Cc1csc(NC(=O)CSCC(=O)Nc2ccccc2)n1	0.3	-4	-9	7	-2.2	-1.1%
COc1ccc(Cn2ccnc2SCC(=O)Nc2ccc3c(c2)OCO3)cc1	0.8	4	x	x	x	-5.9%
CCOC(=O)CSC1=C(C#N)C(c2sccc2C)CC(=O)N1 (configuration not stated)	-0.2	14	7	-2	-0.2	16%[38.3 µM]
CCCS(=O)(=O)c1ncc(Cl)c(C(=O)N(Cc2ccccc2)Cc2ccco2)n1	1.1	15	x	x	x	-1.0%
Cc1c(C(=O)Nc2ccccc2C(=O)N2CCOCC2)cccc1[N+](=O)[O-]	2.8	10	-22	1	1.3	0.9%
CC1(C)Cc2c(c(N3CCOCC3)nc3sc4c(NCCN5CCOCC5)nnnc4c23)CS1	-0.1	-4	-19	-10	-4.5	-0.5%
Cc1ccc(OCCCC(=O)N2CCOCC2)cc1	-0.9	-8	3	-1	-3.1	0.6%
CCOc1cc(NC(=O)C2CCCCC2)c(OCC)cc1NC(=O)c1ccccn1	-0.6	10	-11	-3	-1.3	13%
CC(C)OC(=O)CC(=O)c1sc2nc3c(cc2c1N)CN(C)CC3	-0.1	-10	-11	-3	-2.5	3.6%
COc1ccc(C)cc1Nc1nc2ccccc2c2nnc(C)n12	2.8	63	x	x	x	0.3%
COc1ccc(S(=O)(=O)NCc2ccncc2)cc1OC	0.2	-2	11	8	-0.2	4.5%[38.3 µM]
O=C(c1ccccc1)c1ccc(N2CCOCC2)c(F)c1	0.1	14	-1	15	-3.0	-0.8%[38.3 µM]
COC(=O)c1c(NC(=O)C(C)(C)C)sc2c1C(C(=O)OC)CC2 (configuration not stated)	3.4	-2	3	5	1.5	-1.5%
CC(=O)Nc1ccc(NC(=O)/C=C/c2ccccc2)cc1	-0.4	0	3	15	0.9	2.7%
Fc1ccc(Cn2nnc3ccccc32)cc1	-0.1	18	-21	5	u	1.5%
CCCCc1ccc(S(=O)(=O)NC(=O)C2(C)CCN2C(=O)c2cccc(F)c2)cc1 (configuration not stated)	-1.1	x	-1	-3	-5.1	0.5%
Cc1ccc(Cl)c2c1NC(=O)C2(O)CC(=O)c1ccccc1O (configuration not stated)	-0.8	5	-39	0	-11	-0.6%
COc1ccc(O)c(C(=O)c2cnn(-c3ccc(Cl)cc3)c2)c1	-0.2	28	-7	u	-1.0	1.9%
C[C@]12CC[C@H](O)CC1=CCC1C2CC[C@@]2(C)C1CC[C@@H]2NC(=O)CCC(=O)O (some centres not stated)	-0.1	13	-1	1	-0.3	1.8%
COCCNC(=O)CSc1nc(-c2ccc(OC)c(OC)c2)cc(C(F)(F)F)n1	-0.8	-4	-9	-5	-3.7	0.1%
O=C(Cc1ccccc1[N+](=O)[O-])N1CCOCC1	0.7	-10	0	6	-4.4	-1.6%
COc1ccc(C(=O)NC2(C(F)(F)F)NC(=O)N(CCCc3ccccc3)C2=O)cc1OC (configuration not stated)	0.1	2	-8	-3	-2.2	1.7%
Cc1cccc(-n2ccnc2CN2CCN(C3CCCC3)C(CCO)C2)c1 (configuration not stated)	-0.4	-9	-12	11	-5.2	0.3%
Cc1ccc(C)c(NC(=O)CN(C)C(=O)c2ccc3ncsc3c2)c1	-0.2	-2	-17	-4	-7.7	1.6%
CC[N+](CC)(CC)C/C(N)=N/O	0.2	5	-18	1	-3.2	0.5%
